Biofilm kill mix = mixtures killing C. albicans biofilm; C. albicans biofilm persisters + clotrimazole, fluorescence viability; primary screen in compound mixtures of four per well; inhibition, % at 7.6 µM; 120,000 tested, 0.02% active;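 active means inhibition above 30.3% in the primary screen of four-compound pools, then above 30% when the compound was retested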;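 further: compounds exposed to preformed 24 h biofilms for 48 h; the number belongs to the whole pool; some results filed as inactive read as strong as hits; inactives centre near 12; 0% = biofilm with clotrimazole alone and 100% = kill control; retested singly at about 60 µM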
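Test system: C. albicans CAF4-2 wild-type biofilms; buffer or medium: RPMI/MOPS medium, pH 7.0; schedule: 24 h biofilm formation, then 48 h compound exposure, 37 °C; detection: Alamar Blue fluorescence; measure: percent inhibition of biofilm viability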
Starred values were filed as active, the others as inactive. A portion of the library, so the mix of outcomes need not match the whole.

Molecule,Biofilm kill mix
CN(NC(=O)c1ccccc1F)c1ccc([N+](=O)[O-])cn1,8
CCCCCC1CC(CC(=O)Nc2ccc([N+](=O)[O-])cc2)OC1=O (stereo unspecified),9
COc1ccc(C2=C/C(=C\c3cccc(OC(C)=O)c3)C(=O)O2)cc1,13
c1csc(C(c2nnnn2C2CCCCC2)N2CCCC3(CCCCC3)C2)c1 (stereo unspecified),14
COc1ccc(N2C(=O)CC(c3cc(OC)c(OC)c(OC)c3)CC2=O)cc1,25
O=C(CCCn1cnc([N+](=O)[O-])n1)Nc1cccc(Cl)c1Cl,11
COc1cccc(/C=C/C(=O)Nc2ccc3c(c2)OCCO3)c1OC,15
CSCCC(NC(=O)c1ccccc1)C(=O)Nc1ccc(C)cc1 (stereo unspecified),16
COc1cc(NC(=S)NN2CCN(C)CC2)cc(OC)c1OC,9
CCOC(=O)C1CCN(S(=O)(=O)c2cc(F)ccc2OC)CC1,6
Cc1cc(Sc2nnc(N)s2)c2ccccc2n1,17
Cc1ccc(N/N=C(\C#N)C(=N)N2CCOCC2)cc1,7
CCCCCC(=O)Nc1cccc(C2=NOC3(C2)C[C@@H](C(N)=O)N(C(=O)c2cc([N+](=O)[O-])cc([N+](=O)[O-])c2)C3)c1 (stereo partly specified),16
CCC1CCCCN1S(=O)(=O)c1ccccc1[N+](=O)[O-] (stereo unspecified),3
CSC(=S)NCc1cccnc1,8

Copied from above for reference:
Molecule,Biofilm kill mix
CCC1CCCCN1S(=O)(=O)c1ccccc1[N+](=O)[O-] (stereo unspecified),3
CSC(=S)NCc1cccnc1,8

Grouped by structure, those above with a carbonyl joined to an NH by a bond outside any ring.
Molecule,Biofilm kill mix
CN(NC(=O)c1ccccc1F)c1ccc([N+](=O)[O-])cn1,8
CCCCCC1CC(CC(=O)Nc2ccc([N+](=O)[O-])cc2)OC1=O (stereo unspecified),9
O=C(CCCn1cnc([N+](=O)[O-])n1)Nc1cccc(Cl)c1Cl,11
COc1cccc(/C=C/C(=O)Nc2ccc3c(c2)OCCO3)c1OC,15
CSCCC(NC(=O)c1ccccc1)C(=O)Nc1ccc(C)cc1 (stereo unspecified),16
CCCCCC(=O)Nc1cccc(C2=NOC3(C2)C[C@@H](C(N)=O)N(C(=O)c2cc([N+](=O)[O-])cc([N+](=O)[O-])c2)C3)c1 (stereo partly specified),16

Other compounds.
Molecule,Biofilm kill mix
Nc1nc(Nc2ccc(Cl)cc2)nc(NCc2ccco2)c1[N+](=O)[O-],28
O=[N+]([O-])c1ccc(/C=N/NC(=S)Nc2ccccc2C(F)(F)F)o1,8
CC(C)(C)c1ccc(C(=O)NN2C(=O)CSC2=S)cc1,9
COc1ccccc1NC(=O)Nc1c(C)nn(C)c1C,9
Cc1cc(C(=O)COC(=O)CNS(=O)(=O)c2ccc3ccccc3c2)c(C)n1-c1ccccc1,19
CCCC(=O)OCCNc1cc(SCCC(=O)OC)c2nonc2c1[N+](=O)[O-],11
Cc1cc(NC(=O)Cc2ccccc2)c2ccccc2n1,13
Nc1cnc(Br)cc1Br,17
CCOC(=O)c1nnn2c1nc(Nc1cccc(C(F)(F)F)c1)c1ccccc12,25
Cc1ccccc1NC(=S)N(C)CCc1ccccn1,14
O=C(C1=C[C@H](c2ccc3c(c2)OCO3)C[C@H](OCCCCO)O1)N1CCOCC1,13
CC(C)C(=O)NC(=S)Nc1ccc(S(=O)(=O)Nc2nccs2)cc1,10
CCN(CC)c1ccc(C(=O)O)cc1,16
N#Cc1ccccc1OCCOCCNC1CCCC1,12
CCOc1ccc(C(=O)NCC(=O)N2CCC(C)CC2)cc1OCC,16

Molecules listed so far containing an aryl thioether with sulfur outside any ring, in the order listed:
Molecule,Biofilm kill mix
Cc1cc(Sc2nnc(N)s2)c2ccccc2n1,17
CCCC(=O)OCCNc1cc(SCCC(=O)OC)c2nonc2c1[N+](=O)[O-],11

Other results.
Molecule,Biofilm kill mix
O=C(Nc1ccc(Cl)c(Cl)c1)Nc1ccccc1NS(=O)(=O)c1cccs1,12
CC(OC(=O)Nc1cccc(Cl)c1)C(=O)O (stereo unspecified),16
CCC(CC)c1nnc(NC(=O)CCNC(=O)c2ccccc2Cl)s1,8
CCN1CCN(CC(O)COc2ccc3c(c2)CCC3)CC1 (stereo unspecified),6
COc1ccc(CN2CCC(CO)(CCOc3ccccc3)CC2)cc1C,6
Clc1ccccc1N=C1NN=C(c2cccs2)CS1,14
CC(C)(C)C1CCC(=NNC(=O)C(=O)NCc2ccco2)CC1 (stereo unspecified),14
Cn1ccnc1SCC(=O)c1ccc(O)cc1,17
CC1=C(C(=O)Nc2ccc(C)cc2C)C(c2ccc(C)o2)NC(=S)N1 (stereo unspecified),7
CCCC(=O)N(c1ccc2oc(C)c(C(C)=O)c2c1)S(=O)(=O)c1ccc(C)c([N+](=O)[O-])c1,8
CCOP(=O)(OCC)/C(C#N)=C/c1cc(OC)ccc1OC,28
Cc1ccc(S(=O)(=O)Nc2ccccc2C(=O)NCc2cccnc2)cc1,12
COc1ccc2c(c1)C(SCC(=O)NCc1ccccc1)CC(C)(C)O2 (stereo unspecified),7
O=C(CC1Sc2ccccc2NC1=O)c1ccc(Br)cc1 (stereo unspecified),12
CCOC(=O)c1ccc(NC(=O)Cn2c(-c3nonc3N)nc3ccccc32)cc1,11

(cont.)
smiles,Biofilm kill mix
CCOC(=O)CCc1nn(C)c(=O)c2ccccc12,16
CCCC(C)NC(=O)CSCc1ccc(OC)cc1 (stereo unspecified),18
CC(Oc1cccc(F)c1)c1ccnc2nc(/N=C/N(C)C)nn12 (stereo unspecified),14
O=C1CS/C(=N/N=C\c2ccn[nH]2)N1,4
COc1cccc(OC)c1CC1SC(=O)NC1=O (stereo unspecified),8
CSc1nc(-c2ccccc2)nc(NC(C)=O)c1C(C)=O,10
COc1ccc(CC(=O)NCC2(c3ccc(OC)c(OC)c3)CCCC2)cc1,12
COC(=O)[C@@]1(Cc2ccc(F)cc2)[C@H]2c3cc(C(=O)N4CCCC4)n(CCc4ccccn4)c3C[C@H]2CN1C(=O)c1ccccc1,14
COc1ccc(/C=N/NC(=O)c2ccn[nH]2)cc1COc1ccc([N+](=O)[O-])c(C)c1,18
COc1ccc(-n2nnnc2/C=C/Nc2cc(C(F)(F)F)ccc2OC)cc1,10
CCO[C@H]1OC(C(=O)N2CCN(Cc3ccccc3)CC2)=C[C@@H](c2coc3ccccc3c2=O)[C@@H]1CCCO,22
COc1ccc(C2=NN(C(=O)CSc3nc4ccccc4s3)C(c3ccc(OC)cc3)C2)cc1 (stereo unspecified),20
Cc1cc(C)c(N)c(C(=O)O)c1,22
Cn1c(SCC(=O)N2CCc3ccccc32)nnc1-c1ccc(S(=O)(=O)N2CCCC2)cc1,17
COc1ccc(/C=N/Nc2nc(Nc3ccccc3)nc(N3CCCC3)n2)cc1[N+](=O)[O-],15
COc1ccc(NC(=O)c2cc3c([nH]c4ccccc43)c(C)n2)cc1,6
COc1cccc(OCc2ccc(C(=O)NCC3CCCO3)cc2)c1 (stereo unspecified),8
O=C(N/N=C/c1ccccc1OCc1ccccc1)c1cccs1,11
O=C(Nc1cccc(Oc2ccc3c(c2)C(=O)NC3=O)c1)c1cccs1,16
Cn1cccc1C(C#N)c1ccccc1C#N (stereo unspecified),11
Clc1cccc(Cl)c1CSc1nnc([C@@H]2CCCN2)o1,23
Fc1ccc(CNn2cnnc2SCc2ccc(F)cc2)cc1,16
N/C(=N\OC(=O)c1ccccc1[N+](=O)[O-])c1ccccn1,13
O=C(Cc1cccc2ccccc12)Nc1ccc2c(c1)C(=O)NC2=O,16
COc1ccc(C(=O)NNC2CC(=O)N(Cc3ccc(Cl)cc3)C2=O)cc1OC (stereo unspecified),16
Cc1nc2ccc(Cl)cc2c(-c2ccccc2F)c1CC(=O)O,9
CC(C)c1nc(C(=O)N2CCc3c([nH]c4ccccc34)C2c2ccccn2)cs1 (stereo unspecified),6
CCCn1c(CN(C)Cc2ccccc2)nc2c1c(=O)n(C)c(=O)n2C,15
O=[N+]([O-])c1cccc2ccc(/C=C/c3ccc(C(F)(F)F)cc3)nc12,5
CC1CCCN(C(=O)Nc2ccc(Br)cc2Cl)C1 (stereo unspecified),5
CCOc1cccc(NC(=O)/C(C#N)=C\c2cccnc2)c1,15
O=C(CNC(=O)c1ccc(Cl)cc1Cl)Nc1ccc(F)cc1,18
COc1ccc(S(=O)(=O)N2CCCOC2CNC(=O)C(=O)NCc2ccco2)cc1C (stereo unspecified),7
NC(=O)c1ccc(Oc2ccc3ccc(=O)oc3c2)c([N+](=O)[O-])c1,3
C/C(=N\Nc1ccc(Cl)c(C(=O)O)c1)c1ccccn1,8
CCc1c(C)nc2ncnn2c1N1CCN(S(=O)(=O)c2ccc(OC)cc2)CC1,16
COc1cc2c(cc1OC)C(Nc1ccc(S(N)(=O)=O)cc1)=NC(C)(C)C2,14
O=C(O)C(c1ccccc1)N1CCCCC1 (stereo unspecified),9
O=C(COC(=O)CCc1c[nH]c2ccccc12)NCc1ccccc1,8
Nc1nnc(SCc2ccc([N+](=O)[O-])cc2)s1,3
COc1ccccc1NC(=S)NC(NC(=O)c1ccco1)C(Cl)(Cl)Cl (stereo unspecified),-4
CCOCC(=O)Nc1cccc(-c2nc3cccnc3s2)c1C,17
COC(=O)CNC(=O)C(NC(=O)OCc1ccccc1)C(C)C (stereo unspecified),16
CC(=O)c1ccc(N=c2scc(C)n2C(C)C)cc1,1
CCCN(CCC)CCCNC(=O)CN1C(=O)CSc2ccc(S(=O)(=O)N3CCOCC3)cc21,15
CCCOc1ccc(C2NC(=S)NC(C)=C2C(=O)c2ccccc2)cc1OC (stereo unspecified),17
CCNC(=S)N/N=C/c1cccc(C)c1,4
O=C(N/N=C/c1ccc2c(c1)OCO2)c1ccc(Cn2cc([N+](=O)[O-])cn2)o1,6
CN1CCN(C(=O)CCN2C(=O)/C(=C\c3ccc(Cl)cc3Cl)SC2=S)CC1,15
COc1ccccc1NC(=O)N1CCN(S(C)(=O)=O)CC1,-6
COc1ccc(S(=O)(=O)NCC2CCCN(C(=O)c3cccnc3)C2)cc1 (stereo unspecified),2
O=C(N/N=C/c1ccc2c(c1)OCO2)c1cccs1,7
C=CCc1ccc(OC(=O)c2ccccc2)c(OC)c1,17
CC(c1ccccc1)N1C(=O)NC(NC(=O)C(C)(C)C)(C(F)(F)F)C1=O (stereo unspecified),16
N=C(N)N1CCc2ccccc21,25
O=C(CN1C(=O)/C(=C/c2ccccc2F)Sc2ccccc21)NCc1cccnc1,-2
Cc1ccc(Nc2nc3ccccc3s2)cc1,-8
Cn1cc(CNC(=O)c2cc(-c3ccccc3)nc3ccc(Br)cc23)cn1,-9
COc1ccccc1CN1CCN(Cc2nc(-c3cccs3)no2)CC1,8
Cc1cc(C)n(-c2ccc(C(=O)OCC(=O)Nc3cc(Cl)ccc3[N+](=O)[O-])cc2)n1,-9

Additional entries.
smiles,Biofilm kill mix
COc1ccccc1NC(=O)CN1CCN(c2ccccc2)CC1,12
CCCCCNc1nc2sc3c(c2c(=O)n1-c1cccc(Cl)c1)CCN(C)C3,21
O=C(CSc1nnnn1Cc1ccccc1)c1ccc(F)cc1,13
FC(F)(F)c1cc(N2CCNCC2)c2ccccc2n1,16
COc1ccccc1C(=O)NNC(=O)c1ccc(NC(=O)CC(C)C)cc1,2
O=C(NNc1c(Cl)cc(Cl)cc1Cl)c1n[nH]c(=O)c2ccccc12,10
Cn1cccc1/C=C1\SC(=Nc2ccc(O)cc2)NC1=O,12
O=C(O)c1ccccc1N1C(=O)C2C3CCC(C3)C2C1=O (stereo unspecified),21
Cc1ccc(NC(=O)CSc2nnc(CNC(=O)c3ccccc3F)o2)cc1,12
ClC1(Cl)CC1Cn1c(C2CC2)nc2ccccc21 (stereo unspecified),12
Cc1ccccc1Nc1nc2ccccc2n1C(C)C,18
O=C(c1ccc([N+](=O)[O-])cc1)N1CCSC1c1ccc(Br)cc1 (stereo unspecified),6
CN(CC(=O)Nc1ccc(C(N)=O)cc1)CC(=O)Nc1ccccc1Cl,17
COc1cc(C(C)=O)ccc1COc1ccc(C(=O)O)cc1OC,6
Cc1ccccc1NC1=NC(=S)N(CC(N)=O)C12CCOC(C)(C)C2 (stereo unspecified),9
CCOC(=O)c1c(-c2ccc(C)cc2)csc1NC(=O)/C(C#N)=C/c1ccc(O)c(OC)c1,9
O=C(Nc1cccc(Cl)c1)Nc1ccnc(-c2cccnc2)n1,10
COc1cccc(N2CCN(C(=O)CN(C)S(=O)(=O)c3ccc4c(c3)c(=O)n(C)c(=O)n4C)CC2)c1,-1
COC(=O)CCCNS(=O)(=O)c1ccc2ccccc2c1,13
C[C@@H]1NC(=O)c2cc([N+](=O)[O-])cc(I)c2NCCCC[C@@H](C(N)=O)NC(=O)[C@H](CCC(=O)O)NC1=O,15
O=C(COC(=O)c1ccc(CSc2ccc(Cl)cc2)cc1)Nc1ccccc1,8
CCOCC(=O)Nc1ccc([N+](=O)[O-])cc1Cl,10
CC(=O)Nc1ccc(N2C(=O)CSC2c2cccc([N+](=O)[O-])c2)cc1 (stereo unspecified),11
C=CCN(CC=C)C(=O)c1ccc(OC2CCN(S(=O)(=O)N(C)C)CC2)cc1,-4
COc1ccccc1NC(=O)N1CCCC1C(=O)NCC1CCCO1 (stereo unspecified),14
O=C(CNCc1cccs1)NC12CC3CC(CC(C3)C1)C2,-6
Cc1cc(C(=O)CSc2cccc[n+]2[O-])c(C)n1-c1ccc(Br)cc1,16
COc1ccc(CCNC(=O)CSc2nc(-c3ccc(OC)c(OC)c3)ccc2C#N)cc1,-2
CC1=NNC(=O)C1CCC(=O)N/N=C(/C)c1ccc([N+](=O)[O-])cc1 (stereo unspecified),13

Compound activity (PubChem BioAssay)
